PINK1 modulator = PINK1 expression modulation. Potency, µM (highest dose often 76.6 µM), for the others: at the top dose activation (PINK1 increase), actives largely listed as activators. PINK1 immunofluorescence, high-content cytometry, 24 h. 0.2% of 410,000 active. AID 624263; active = well fitted activation curve with a large enough effect; inconclusive = small, poorly fitted or top-dose-only effect; inactive = flat fitted curve, though single readings scatter; cell line not stated here;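 also: potency is read from the fitted curve at half-maximal effect; % of control where 0% means no effect; nearly all actives have a fitted effect of over 65% in size; a mitochondrial uncoupler was the plate control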
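Fluorescence from anti-PINK1 antibody, together with nuclear and cell stains, was scanned on a laser-scanning cytometer. Before staining, stable-line cells were incubated 24 hours with compounds at 5 concentrations; primary antibody 12 h at 10 degrees C.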
TRPML1 blocker = human mucolipin-1 channel inhibition; 0.02% of 390,000 active; activity change, negative = inhibition, % (no concentration beside the values); Q9GZU1; TRPML1-inducible cells, Ca2+ dye fluorescence, FDSS; hits give low values; inhibition of EC80 agonist-evoked calcium signal; AID 624415; in the data active means activity change below about -50%; inconclusive means about -30% to -50%; inactive means above about -30%;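 also: stimulus is agonist 54-4 at its EC80 concentration; % is scaled to controls: 0 for no effect and ±100 for the full control effect; compound concentration not given in the record; the text of the record puts the active cut at -80%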
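Tet-induced TRPML1-DL cells loaded with Ca8 no-wash calcium dye were read kinetically on FDSS. Compound addition was followed by EC80 agonist 54-4 (4 uM final); inhibition was read over 110 s.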
TRPV1 potentiator = potentiators of human vanilloid receptor 1 (TRPV1) | Q8NER1 | TRPV1-expressing cells, Fluo-8 calcium influx, capsaicin EC20 potentiation; host cell line not named in the record; control for the full effect not named in the record | potentiation, % at 8.33 µM | 0.02% of 320,000 active; active means potentiation above 80%; inconclusive means 30% to 80%; inactive means below 30%; also: 0% is about no effect
Target sequence (Q8NER1 whole entry, looked up): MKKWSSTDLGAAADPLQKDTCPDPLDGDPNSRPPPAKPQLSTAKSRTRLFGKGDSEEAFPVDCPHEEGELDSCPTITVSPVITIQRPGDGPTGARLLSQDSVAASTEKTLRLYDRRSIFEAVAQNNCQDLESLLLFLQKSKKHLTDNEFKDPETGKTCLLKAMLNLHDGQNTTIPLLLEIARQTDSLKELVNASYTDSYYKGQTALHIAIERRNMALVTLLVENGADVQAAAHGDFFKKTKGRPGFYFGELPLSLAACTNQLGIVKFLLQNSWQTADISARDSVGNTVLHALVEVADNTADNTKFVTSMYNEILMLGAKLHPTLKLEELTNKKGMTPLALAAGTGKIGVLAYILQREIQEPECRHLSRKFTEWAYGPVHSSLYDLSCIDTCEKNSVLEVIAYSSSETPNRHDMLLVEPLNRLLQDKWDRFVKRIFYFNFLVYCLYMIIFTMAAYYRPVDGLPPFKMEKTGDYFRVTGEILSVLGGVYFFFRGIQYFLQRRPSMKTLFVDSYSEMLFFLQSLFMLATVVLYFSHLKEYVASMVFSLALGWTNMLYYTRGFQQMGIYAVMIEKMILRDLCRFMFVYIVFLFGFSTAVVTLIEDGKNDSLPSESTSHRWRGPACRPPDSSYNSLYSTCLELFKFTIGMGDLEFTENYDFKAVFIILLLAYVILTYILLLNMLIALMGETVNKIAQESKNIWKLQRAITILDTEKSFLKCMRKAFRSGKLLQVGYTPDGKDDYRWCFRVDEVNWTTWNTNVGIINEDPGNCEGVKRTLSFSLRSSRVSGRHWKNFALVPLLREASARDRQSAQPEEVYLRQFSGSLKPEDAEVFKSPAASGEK
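Cells expressing TRPV1 were dye-loaded with Fluo-8 and read kinetically: 10 s baseline, 3 min after compound (agonist portion), then 2 min after EC20 capsaicin (allosteric enhancer portion). Calcium-bound dye fluorescence at 480/520 nm.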
Menin-MLL FL inh = menin-MLL binding inhibition, fluorescein peptide; Fluorescence polarization, fluorescein-MLL peptide displacement from menin; FP activity change, % at 61.4 µM; 290,000 tested, under 10 active; AID 1766; inconclusive = falling polarisation curve, or a change in total fluorescence; inactive = total fluorescence flat and polarisation flat or rising; no compound was filed as active; the % refers to the polarisation; negative = inhibition;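 also: % of control where 0% means no effect; inhibitors lower the polarisation; unlabelled MLL peptide was the positive control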
ClpP mod = qHTS Assay for Activators of ClpP. Potency, µM (highest dose often 57.5 µM), for the others: at the top dose activity change, negative = active. 1.9% of 340,000 active. purified B. subtilis ClpP, FRET peptide cleavage, 20 min; active = well fitted falling curve with a large enough effect; inconclusive = small, poorly fitted or top-dose-only effect; inactive = no such curve, though single readings can be large or run the other way; also: potency is read from the fitted curve at half-maximal effect; the source files actives as falling curves though it sought activators and does not explain the sign; nearly all actives have a fitted effect of over 65% in size; many hits overshoot -100%
Target sequence (P80244 whole entry, looked up): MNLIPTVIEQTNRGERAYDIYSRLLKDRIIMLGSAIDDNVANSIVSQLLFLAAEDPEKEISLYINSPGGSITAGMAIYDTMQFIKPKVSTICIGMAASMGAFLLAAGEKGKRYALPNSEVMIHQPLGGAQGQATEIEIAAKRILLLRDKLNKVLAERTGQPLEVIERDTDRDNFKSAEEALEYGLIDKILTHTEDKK
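FRET quenching reversal measured ClpP activation: 10 microg/mL B. subtilis ClpP at pH 8 with the FRET-FV decapeptide, read at 430 nm after 320 nm excitation. The 20-min minus 0-min signal was scaled between DMSO/no-enzyme wells and ADEP (5.8 microM final).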
Sfp inh = blocks B. subtilis Sfp PPTase activity; Potency, µM, for inactives: max response, negative = inhibition, usual class: inhibitors; Q9F4F7; Biochemical Sfp PPTase activity, qHTS; 3.5% of 310,000 active; active = well fitted inhibition curve with a large enough effect; inconclusive = small, poorly fitted or top-dose-only effect, or another doubt; inactive = no such curve, though single readings can be large or run the other way;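 also: the enzyme is Sfp with the accession as filed and its product quenches rhodamine fluorescence; potency is read from the fitted curve at half-maximal effect; 0% = enzyme reaction without inhibitor and -100% = no enzyme wells; top concentration of the series not given in the record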
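Step 1, compound plus 15 nM Sfp-PPTase, 15 min, room temperature. Step 2, add rhodamine-CoA (5 uM) and BHQ-2-YbbR (12.5 uM). Step 3, read 525/598 nm fluorescence at 0 and 30 min.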
TRPML1 agonist = human mucolipin-1 channel agonism | activation, % (test concentration not listed) | 0.12% of 410,000 active | TRPML1-expressing cells, Ca2+ dye fluorescence, FDSS; host cell line not named in the record; reference of the full effect not given here | AID 624414; in the data active = activation above about 50%; inconclusive = about 30% to 50%; inactive = below about 30%; also: 0% is about no effect; the text of the record puts the active cut at 80%
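Agonist activity was taken from a 110 s kinetic Ca2+ dye read on the FDSS after pinning compounds onto TRPML1-DL cells. The cells were seeded at 1,500/well with Tet inducer, incubated about 16 h, then dye-loaded at room temperature.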
Numbers without * were called inactive; ? = inconclusive; . = not tested or not shown; [ ] = another dose, or the depositor's remark.

SMILES	PINK1 modulator	TRPML1 blocker	TRPV1 potentiator	Menin-MLL FL inh	ClpP mod	Sfp inh	TRPML1 agonist
CNC(=O)/C(C#N)=C/c1c(N2CC(C)OC(C)C2)nc2ccccn2c1=O (stereo not drawn)	5.2%	11.8	-8.8	-2.7	28.2µM*	?	0.3
Cc1cccc(N2CCN(C(=O)CCS(=O)(=O)c3ccc4c(c3)NC(=O)C(C)S4)CC2)c1C (stereo not drawn)	4.2%	14.0	-3.2	.	-4.5%	10.9%	0.1
O=C(/C=C/c1ccc2c(c1)OCO2)N1CCN(c2ccc(Cl)cc2)CC1	8.7%	47.6	-3.8	0.4	-0.1%	13.5%	2.3
CS(=O)(=O)c1sc(C(=O)NC(=O)Nc2cccc(C(F)(F)F)c2)c2c1C=CCC2	0.0%	-5.6	4.4	-2.0	-14.3%	4.9%	0.3
Cc1ccc(Oc2c(C(F)(F)F)oc3cc(OCC(=O)NC4CCCCC4)ccc3c2=O)cc1	2.9%	7.6	.	.	0.7%	.	0.9
O=c1c2cnn(-c3ccccc3Cl)c2ncn1Cc1cccnc1	5.3%[38.3 µM]	-4.3	-9.1	2.5	-3.0%	12.2%	-0.2
CCOc1cc2sc(N3CCC(C(=O)Nc4ccc(C)cc4)CC3)nc2cc1Br	0.0%	19.3	-8.0	.	-0.7%	.	1.5
N#CC1C(=O)NC(=O)C(C#N)C12CCCc1sccc12 (stereo not drawn)	0.4%	3.0	.	.	1.8%	.	-0.1
Cc1ccc(-n2ncc3c(Nc4ccc(Oc5ccccc5)cc4)ncnc32)c(C)c1	3.1%	-12.7	.	.	3.8%	.	0.8
COc1ccc2nc(NC(=O)NC3CCCCC3)sc2c1	3.1%	-21.5	-9.3	0.6	-1.3%	-12.2%	0.4
O=C1COc2ccc(-c3csc(-c4ccc(F)cc4)n3)cc2N1	1.1%	.	.	.	-3.8%	.	0.0
CCc1ccccc1S(=O)(=O)Cc1ccc(C(=O)N2CCN(c3ccccn3)CC2)o1	5.7%	-2.9	-4.7	1.3	-5.2%	?	0.6
O=C(CN1C(=O)c2ccccc2S1(=O)=O)NCCC1=CCCCC1	1.9%	-2.3	-7.4	-1.9	1.5%	17.9%	1.2
O=C(/C=C/c1ccccc1Cl)NNC(=O)c1cccs1	-2.0%	-1.8	-10.4	3.0	-1.1%	8.1%	0.3
O=C(Nc1cccc(-n2cnnn2)c1)c1ccco1	-1.2%	-7.8	-3.3	12.3	1.1%	-2.7%	-0.8
Cc1ccc(Cn2nnc3c(=O)[nH]c(C4CCN(C(=O)Cc5ccccc5F)CC4)nc32)cc1	-0.6%	-15.6	.	.	-3.4%	.	0.5
CC1(C(=O)NS(=O)(=O)c2cccc(C#N)c2)CCN1C(=O)c1cccc2ccccc12 (stereo not drawn)	1.9%	.	.	.	-4.9%	.	-0.3
NC(CCc1ccccc1)c1csc(NC(=O)NCCc2ccccc2)n1 (stereo not drawn)	-1.4%	.	.	.	-1.1%	.	0.5
CC(=O)c1ccc(N2CCN(C(=S)NCCCN(C)C)CC2)cc1	-0.1%	5.9	?	5.0	.	3.2%	-0.4
COc1ccc(-c2cc(C(=O)Nc3ccc(F)cc3F)no2)cc1	-0.8%	?	26.3	-0.4	.	14.5%	0.1
COc1ccc(CCNc2nnc(Sc3nnnn3-c3ccccc3)s2)cc1OC	?	2.8	-1.8	-1.3	0.2%	13.8%	0.7
COc1cccc(NC(=O)COc2cccc3c2CCNC3=O)c1	2.0%	-3.5	-19.5	.	-0.7%	.	-0.2
O=C(N/N=C\c1ccc([N+](=O)[O-])o1)C1COc2ccccc2O1 (stereo not drawn)	?	7.5	3.9	1.0	.	-1.4%	2.1
CCc1c(C)sc2c1CCN(C(=O)Nc1ccccc1C(=O)OC)C2c1ccc(F)cc1 (stereo not drawn)	0.4%	29.5	.	.	4.7%	.	-0.3
Cc1ccc(CS(=O)(=O)Cc2ccc(C(=O)NCc3cccnc3)o2)cc1	1.2%[38.3 µM]	3.6	-2.1	5.4	1.6%	-5.9%	-0.3

Some of the entries above, set out differently.
Molecule | PINK1 modulator | TRPML1 blocker | TRPV1 potentiator | Menin-MLL FL inh | ClpP mod | Sfp inh | TRPML1 agonist
CNC(=O)/C(C#N)=C/c1c(N2CC(C)OC(C)C2)nc2ccccn2c1=O (stereo not drawn) | 5.2% | 11.8 | -8.8 | -2.7 | 28.2µM* | ? | 0.3
Cc1cccc(N2CCN(C(=O)CCS(=O)(=O)c3ccc4c(c3)NC(=O)C(C)S4)CC2)c1C (stereo not drawn) | 4.2% | 14.0 | -3.2 | . | -4.5% | 10.9% | 0.1
O=C(/C=C/c1ccc2c(c1)OCO2)N1CCN(c2ccc(Cl)cc2)CC1 | 8.7% | 47.6 | -3.8 | 0.4 | -0.1% | 13.5% | 2.3
CS(=O)(=O)c1sc(C(=O)NC(=O)Nc2cccc(C(F)(F)F)c2)c2c1C=CCC2 | 0.0% | -5.6 | 4.4 | -2.0 | -14.3% | 4.9% | 0.3
Cc1ccc(Oc2c(C(F)(F)F)oc3cc(OCC(=O)NC4CCCCC4)ccc3c2=O)cc1 | 2.9% | 7.6 | . | . | 0.7% | . | 0.9
O=c1c2cnn(-c3ccccc3Cl)c2ncn1Cc1cccnc1 | 5.3%[38.3 µM] | -4.3 | -9.1 | 2.5 | -3.0% | 12.2% | -0.2
CCOc1cc2sc(N3CCC(C(=O)Nc4ccc(C)cc4)CC3)nc2cc1Br | 0.0% | 19.3 | -8.0 | . | -0.7% | . | 1.5
N#CC1C(=O)NC(=O)C(C#N)C12CCCc1sccc12 (stereo not drawn) | 0.4% | 3.0 | . | . | 1.8% | . | -0.1
Cc1ccc(-n2ncc3c(Nc4ccc(Oc5ccccc5)cc4)ncnc32)c(C)c1 | 3.1% | -12.7 | . | . | 3.8% | . | 0.8
COc1ccc2nc(NC(=O)NC3CCCCC3)sc2c1 | 3.1% | -21.5 | -9.3 | 0.6 | -1.3% | -12.2% | 0.4

Later entries.
SMILES	PINK1 modulator	TRPML1 blocker	TRPV1 potentiator	Menin-MLL FL inh	ClpP mod	Sfp inh	TRPML1 agonist
CCc1nc2c(OCCc3cccc(OC)c3)cccn2c1N(C=O)Cc1ccccc1	0.2%	.	.	.	-3.0%	.	-0.6
O=C(/C=C/[C@H]1O[C@@H](n2ccc(=O)[nH]c2=O)[C@H](O)[C@@H]1O)NCCN1CCOCC1	0.5%	-11.0	.	.	0.9%	.	-0.3
O=C(Nc1ccccc1)N1CCOCC1	-2.7%	22.2	0.0	5.2	-2.3%	15.8%	0.6
CC[N+]1=C(C)C(C)(C)c2cc(C)ccc21	22.4µM*	.	10.3	?	-1.2%	-11.8%	.
Cc1cc(O)ccc1-c1cnc2ccccc2n1	-12.2%[38.3 µM]	-6.9	-1.0	2.5	-2.8%	50.1µM*	1.9
OC[C@@H]1CN(Cc2cccnc2)C[C@H](n2cnc3c(N4CCN(c5ccccc5)CC4)ncnc32)O1	5.1%	.	.	.	-4.5%	.	-0.5
C[C@H](NC(=O)OC(C)(C)C)c1nnc(SCc2ccc(Cl)cc2Cl)o1	3.2%	-0.2	.	.	0.4%	.	1.9
CC(=O)N/N=C/c1cc2c(cc1[N+](=O)[O-])OCO2	-1.6%	-0.5	8.8	2.5	.	13.8%	-0.2
CSc1ncc(Cl)c(C(=O)Nc2nnc(SC/C=C/c3ccccc3)s2)n1	1.9%[38.3 µM]	4.2	6.6	3.2	-6.2%	1.2%	0.6
Cc1ccc(NC2CC(=O)N(c3ccc(N4CCCCC4)cc3)C2=O)cc1 (stereo not drawn)	-2.3%[38.3 µM]	-13.7	6.8	0.3	-5.6%	-9.4%	0.6
CC1=NNC(=O)C1Cc1ccc(F)cc1 (stereo not drawn)	0.8%	4.1	5.1	4.2	-12.4%	12.9%	0.6
C#CCOCCOCCOCCNc1nc(N2CCN(C(=O)[C@H](CCCCN)n3cc(CC(C)O)nn3)CC2)nc(N2CCN(C(=O)[C@H](CCCCN)n3cc(CC(C)O)nn3)CC2)n1 (stereo partly drawn)	0.7%	-7.6	-19.4	.	-0.4%	.	0.0
CCCCn1nnnc1C(c1ccccc1)N1CCN(C(=O)C2CCCO2)CC1 (stereo not drawn)	-0.7%	.	.	.	-0.4%	.	13.0
O=c1cnc2cc([N+](=O)[O-])ccc2[nH]1	-2.6%	1.0	4.3	0.4	.	5.5%	0.2
CCc1ccc2c(CN3CCN(S(=O)(=O)c4ccc5c(c4)OCCO5)CC3)cc(=O)oc2c1	-3.7%	13.9	-0.8	3.9	-3.0%	1.7%	-0.4
CCOc1ccc(C2C(C#N)=C(N)N(N(C)C)C3=C2C(=O)CCC3)cc1 (stereo not drawn)	1.1%	24.9	23.1	1.1	1.0%	4.7%	0.6
CCOC(=O)CN(C)S(=O)(=O)c1ccc(-c2cc(C(=O)OC)sc2C(F)(F)F)cc1	-0.3%	2.8	26.5	4.6	-3.1%	18.9%	0.1
COC(=O)NNC(=O)COc1ccc(Cl)cc1	2.6%[38.3 µM]	-16.3	3.7	4.2	0.0%	6.8%	1.6
CC(=O)Nc1ccc(NS(=O)(=O)c2cc(Br)cc3c2N(C(=O)C2CC2)CC3)cc1	4.7%	-2.5	.	.	-0.5%	.	-0.5
Cc1ccc(N2CCN(C(=O)c3cccc([N+](=O)[O-])c3)CC2)cc1Cl	0.8%	0.8	1.2	2.2	.	1.0%	-0.5
Cc1ccc(N2C(=O)C3CC(c4ccccc4)=C4C5C=CC(C6C(=O)N(c7ccc(C)cc7)C(=O)C56)C4C3C2=O)cc1 (stereo not drawn)	0.5%	3.6	-14.1	-3.8	-4.2%	8.6%	0.5
CCCCN(C)c1ccc([N+](=O)[O-])cc1	4.3%	8.7	-3.8	0.6	39.4%	0.4%	0.9
CSc1ccc(CNC(=O)c2c(C)noc2C)s1	0.1%	19.4	1.5	-0.3	-0.4%	8.8%	-0.5
CC1=C(C(=O)N2CCCCCC2)CC(CC(=O)NCC2CCCCC2)C(=O)N1Cc1ccccc1 (stereo not drawn)	0.8%	0.8	.	.	0.2%	.	-0.4
COCc1c(C(=O)N/N=C(/C)c2cccs2)nnn1-c1nonc1N	7.1%	-3.4	-0.6	-4.3	.	14.1%	-0.2
Cc1cc(C)c[n+](C(C)C(=O)c2ccc(-c3ccccc3)cc2)c1 (stereo not drawn)	2.2%	1.2	4.9	5.9	?	-8.8%	0.2
CCCOc1ccc(C(CC(=O)O)NC(=O)c2ccc3c(c2)OCO3)cc1 (stereo not drawn)	-0.1%	47.8	5.8	2.3	-11.9%	20.2%	0.1

From PubChem
